# Anaer choline gr: choline-fed anaerobic bacterial growth inhibition | actives 0.2% (n = 55,000) | Gram-negative bacterium anaerobic choline minimal medium, absorbance growth; hits give low values; many inactives read as strong as hits in the columns shown | calls only;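 active means growth z-score on choline under -2 at 7 or 20 h with little or no fall on glycerol, limits in tiers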;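 further: stock transfer was 300 nL into about 50 µL; the organism is E. coli; final concentration not given here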
# Anaer choline gr early: also measured in Anaer choline gr; calls as there; z-score; measured here: choline growth z-score, timepoint 1;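 score of optical density at 7 h as mean of two plates; lower means less growth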
# Starred values were filed as active, the others as inactive; i = inactive; & = joins results of further samples. These rows are one share of the data; the hit share may differ from the screen's.
SMILES,Anaer choline gr,Anaer choline gr early
O=C(NCC1CCCO1)c1ccc2c(c1)CCN2S(=O)(=O)c1ccc(Cl)cc1 (configuration not stated),i,0.5
CC1Cc2ccccc2N1C(=O)c1ccc(N2C(=O)C(C)(C)CS2(=O)=O)cc1 (configuration not stated),i,-0.41
COc1ccc(-c2nc(CCNC(=O)c3ccc(C(C)(C)C)cc3)cs2)cc1,i,2.2
Cc1noc(C)c1S(=O)(=O)N1CCC(CC(=O)N2CCN(C(=O)C3CC3)CC2)CC1,i,-1
O=C1CN(/N=C/c2ccc([N+](=O)[O-])o2)C(=O)N1,i,-1.5
CCc1ccc(N2CCn3c2nc2c3c(=O)n(CC(=O)O)c(=O)n2C)cc1,i,-1.7
CCN1CCCC1CNS(=O)(=O)c1ccccc1-c1nc(-c2ccc(C)cc2)no1 (configuration not stated),i,-0.89
C=C1C(=O)O[C@H]2[C@H]1CC/C(C)=C/CC[C@@]1(C)O[C@@H]21,i,0.6
Cc1noc(C)c1S(=O)(=O)Nc1ccc2[nH]c(=O)oc2c1,i,-0.04
CCCN1C(=O)c2ccccc2Sc2cc(-c3noc(CN4C(=O)COc5ccccc54)n3)ccc21,i,1.9
Cc1nn2c(c1-c1ccc(Cl)c(S(=O)(=O)NC3CC3)c1)NC(=O)CCC2=O,i,0.19
Cc1nc2ccccc2c(=O)n1-c1ccc(NC(=O)c2ccc(C(C)C)cc2)cc1,i,0.25
COc1ccc(NC(=O)c2cc3c(C)nn(-c4ccc(Cl)cc4)c3s2)c(OC)c1,i,0.62
CCOC(=O)N1CCC2(CC1)N=C(c1cc(Cl)ccc1O)CC(c1ccccc1O)N2 (configuration not stated),i,-2.3
CCSc1nsc(NC(=O)c2cccc(C)c2)n1,i,0.46
COc1ccc(NC(=O)CSC2=Nc3ccccc3N=C(c3ccccn3)C2)cc1OC,i,-0.47
COc1cc(C)c(C)cc1S(=O)(=O)Nc1ccc(N2CCCS2(=O)=O)cc1,i,0.4
Cn1c(N2CCC(C(=O)NCCCN3CCOCC3)CC2)cc(=O)n(C)c1=O,i,0.31
Cc1cc(C)n(-c2nc(CC(=O)N3CCC(C)CC3)cs2)n1,i,-0.59
CCn1c(Cn2cccn2)nc2cc(NC(=O)c3ccc(OC)cc3)ccc21,i,-0.21
Cc1cc(NC(C)C)n2nc(C(F)(F)F)c(-c3ccc(Cl)cc3)c2n1,i,0.65
CC(C)Sc1nn(C(C)C)c2nc3c(c(=O)n12)C(C)(C)Cc1ccccc1-3,i,0.41
COC(=O)c1ccccc1NC(=O)Cn1nnc2sc3c(c2c1=O)CCC(C(C)(C)C)C3 (configuration not stated),i,-1.4
C[C@]12CC[C@@H]3c4ccc(O)cc4CC[C@H]3[C@@H]1CCC2=O,i,0.47&0.74&0.81
Cc1cc(-n2c(C)nc3ccccc3c2=O)ccc1NC(=O)C(C)Oc1cccc(Cl)c1 (configuration not stated),i,-1.3

# (listing goes on)
SMILES,Anaer choline gr,Anaer choline gr early
Cc1cccc(C)c1Nc1c(-c2ccccc2O)nc2cnc(Br)cn12,i,-0.61
Cc1[nH]c(C)c(S(=O)(=O)N2CCC(C(=O)N3CCCCC3C)CC2)c1C(=O)N1CCCCC1 (configuration not stated),i,0.57
O=C(Nc1cccc(-c2noc(C3CC3)n2)c1)c1ccc2c(c1)OCO2,i,2
CC(=O)Oc1cc(C(C)C)c(OCCN(C)C)cc1C,i,0.17&0.53
Cc1cc(C)c(C)c(S(=O)(=O)N2CCC(c3noc(-c4cccc(F)c4)n3)CC2)c1C,i,2.1
COCCn1nnc2cc(S(=O)(=O)N3CCCCC3C(=O)Nc3cccc(C)c3C)ccc21 (configuration not stated),i,-0.27
CCCc1nc(C)c2c(=O)[nH]c(-c3cc(S(=O)(=O)N4CCN(CC)CC4)ccc3OCC)nn12,i,0.27&0.63
CC1(C(=O)NCc2ccc(F)cc2F)CCN(C(=O)c2ccc(C(C)(C)C)cc2)CC1,i,0.03
O=c1cc(CNc2ccc(F)cc2)nc2nc(NCc3ccc(F)cc3)[nH]n12,i,-0.4
O=S(=O)(c1ccc(Cl)cc1)N1CCn2cccc2C1c1ccccc1 (configuration not stated),i,1.1
Cc1cc(C)cc(NC(=O)N2CCN(Cc3cc(=O)n4nc(-c5ccc(Cl)cc5)sc4n3)CC2)c1,i,1
Cn1cnc2c(C(=O)O)nn(-c3ccc(F)cc3)c2c1=O,i,0.83
Cc1noc(Cn2cnc3c([nH]c4ccccc43)c2=O)n1,i,-1.5
CCc1c(C)nc(SCc2nc(-c3cc(Br)ccc3OC)oc2C)[nH]c1=O,i,0.08
O=C(Nc1ccc(Sc2nc3ccccc3n3nnnc23)cc1)c1ccccc1,i,0.11
O=C(Nc1ccc2c(c1)OCO2)c1nnc(C2CCN(C(=O)C3CCC3)CC2)s1,i,-0.16
CCn1c(C(=O)O)c(CC(=O)NCCC2=CCCCC2)c2ccccc21,i,0.66
CCc1cc2c(N3CCN(c4ccc(F)cc4)CC3)ncnc2s1,i,-0.05
COc1ccccc1N(Cc1nc2nc(C)cc(=O)n2[nH]1)S(=O)(=O)c1ccccc1,i,-0.37
COCCOC(=O)c1cnn2c(C(F)(F)F)cc(-c3ccccc3)nc12,i,-0.44
CC(C)CCNC(=O)C1CCCN1C(=O)c1ccc(NS(=O)(=O)c2ccc(F)cc2)cc1 (configuration not stated),i,-0.9
OCC1OC(Oc2cc(O)cc(C=Cc3ccc(O)cc3)c2)C(O)C(O)C1O (configuration not stated),i,0.31
O=C(NC1CCCCC1)c1nc[nH]c1C(=O)NCC1CC1,i,-0.39
Cc1ccn2c(=O)c(C(=O)Nc3ccccc3C)cnc2c1,i,0.83
CCCCC(=O)Nc1cnc(N2CCNCC2)c(C(=O)N2CCC(C(=O)OCC)CC2)c1,i,0.1

# Continued:
SMILES,Anaer choline gr,Anaer choline gr early
CC(C)Cn1c(=O)c(=O)[nH]c2cc(-c3noc(-c4cncc(Br)c4)n3)ccc21,i,0.28
Cc1cc(Cl)ccc1NC(=O)C1CCCN(c2nc3cccnc3n(Cc3ccccc3)c2=O)C1 (configuration not stated),i,0.14
O=C(NCc1ccc2c(c1)OCO2)C1CCN(c2ccc(F)cc2)C1=O (configuration not stated),i,-0.27
COc1ccc(CNC(=O)C2CCCN(c3ncnc4c3oc3ccccc34)C2)c(OC)c1 (configuration not stated),i,-1.2
CN(C)c1ncncc1N1CCC(C(=O)NC2CC2)CC1,i,0.45
CCCc1cc(C2CCCN2C(=O)Cn2nc(C(F)(F)F)cc2C)no1 (configuration not stated),i,-0.72
COc1cccc(-c2nc3n(c2C(=O)NC2=NCCS2)CCS3(=O)=O)c1,i,-0.2
COCCNC(=O)CN1C(=O)C(C)CSc2ccc(S(=O)(=O)N3CCOCC3)cc21 (configuration not stated),i,0.38
O=C(Nc1cccc(F)c1)c1cc2ccccn2n1,i,-2.2
Cc1ccccc1Cc1c(C)nc2nc(SCC(=O)NCC3COc4ccccc4O3)nn2c1C (configuration not stated),i,-1.4
CCN1CCN(c2cc(-c3nc(-c4ccccc4)no3)c3ccccc3n2)CC1,i,0.15
O=C(Nc1ncn(CC(=O)N2CCN(c3ccccc3)CC2)n1)c1ccccc1,i,-1.1
CCC(=O)Nc1ccc(-c2cc(C(=O)NCc3cccnc3)c3ccccc3n2)cc1,i,-0.41
O=C(Nc1ccc(F)c(-c2nnc(-c3ccccc3)o2)c1)Nc1ccc(F)cc1F,i,0.76
COc1ccc(S(=O)(=O)Nc2c(-n3cnnc3)nn(C)c2C)cc1,i,0.06
CCn1cnc2cc(-c3noc(C(C)NS(=O)(=O)c4ccc(C)cc4)n3)ccc21 (configuration not stated),i,-0.58
NC(=O)OCC(COC(N)=O)c1ccccc1,i,-0.87&0.48&0.67&1.1
CNC(=O)c1ccc2c(c1)N(C)C(=O)CO2,i,-1.6
CN(C)C(=O)C1=CCN(C(=O)NC(C)(C)C)CC1,i,-0.08
COc1cccc(Cn2c(C)c(C3=CCN(S(=O)(=O)c4cccc5nsnc45)CC3)c3ccccc32)c1,i,1.6
CN(CCc1noc(-c2ccc(C(=O)NCc3cccc(Cl)c3)cc2)n1)C(=O)Nc1ccccc1,i,0.33
Cc1ccccc1NC(=O)N1CCC(c2nc(-c3ccccc3)no2)CC1,i,-1.2
COc1ccc(CCc2nnc3sc(-c4ccc(Br)cc4)nn23)cc1OC,i,-1
Cc1nn(-c2ccc3nnc(C)n3n2)c2c1C(c1ccc(OC3CCCC3)cc1)CC(=O)N2 (configuration not stated),i,1.4
CN1C(=O)CCSc2ccccc21,i,-2.3

# Further structures:
SMILES,Anaer choline gr,Anaer choline gr early
CCN(CC)S(=O)(=O)c1ccc2c(c1)N(CC(=O)Nc1cccc(Cl)c1C)C(=O)CCS2,i,-1.4
NC(N)=Nc1nc(CSCC/C(N)=N/S(N)(=O)=O)cs1,i,1&-1.1&0.58
Cc1nc2nc3c(c(Nc4ccc(Br)cc4)n2n1)CCCC3,i,0.82
CC(N)=NCCCC[C@@H](N)C(=O)O,i,0.27
Brc1ccc(-c2noc(CSc3nccn3-c3ccccc3)n2)cc1,i,0.9
Cc1cc2nc(COc3ccc(Cl)cc3NC(=O)CC(C)C)cc(=O)n2o1,i,0.42
CCOc1ccc(S(=O)(=O)NC(C)C)cc1-c1nc(C)no1,i,-1.2
COc1cc(NC(=O)COc2cc(C)c3c(C)nn(-c4cccc(Cl)c4C)c3n2)cc(OC)c1,i,1.6
Cc1cc2nc(NC(=O)Nc3cccc(F)c3)sc2cc1C,i,0.91
Cc1c(-c2nnc(C(=O)NC3CCCc4ccccc43)o2)oc2c(C)cccc12 (configuration not stated),i,-0.31
Cc1ccccc1C(=O)Nc1ccc2c(c1)oc(=O)n2C,i,-0.74
Cc1c(Cl)cccc1S(=O)(=O)N1CCCN(c2nc3cccnc3s2)CC1,i,-0.78
CCC(=O)Nc1cccc(-c2noc(C3CCCN(C(=O)CCc4ccccc4)C3)n2)c1 (configuration not stated),i,0.53
COc1cc2c(C(=O)N3CCCCC3)c(C)n(-c3ccccc3)c2cc1Br,i,-1.9
N#CC1=CN(c2ccc(F)cc2Br)c2cc(F)ccc2S1(=O)=O,i,0.02
Cc1nc2cc(-c3noc(-c4ccc(Br)cc4)n3)ccc2o1,i,-1.2
COCCNC(=O)N1Cc2c(C)nn(-c3ccccc3)c2-n2cccc2C1c1ccc(F)cc1 (configuration not stated),i,2.4
COc1cccc(OC)c1C(=O)Nc1ccc(S(=O)(=O)Nc2nccs2)cc1,i,-1.2
Nc1nc2c(nc(Br)n2C2OC3COP(=O)(O)O[C@@H]3C2O)c(=O)[nH]1 (some centres not stated),i,0.12
CCCCNC(=O)c1cccc(Nc2ccc(-c3ccc(F)cc3)nn2)c1,i,0.94
COc1ccc(-c2nn3c(CSc4ccccc4)nnc3s2)cc1,i,-0.13
CC1CSc2ccc(S(=O)(=O)N3CCOCC3)cc2N(CC(=O)N2CCc3ccccc32)C1=O (configuration not stated),i,0.81
O=C(NCCc1ccccc1)C1CCCN(c2nc3ccccc3n3cccc23)C1 (configuration not stated),i,0.28
COc1ccc(-c2noc(CSc3nc4c(-c5ccccc5)c[nH]c4c(=O)[nH]3)n2)cc1OC,i,-0.43
O=C(c1sc2cc(F)ccc2c1Cl)N1CCN(c2ccc(F)cc2)CC1,i,0.51

# Some of the entries above in another layout:
canonical_smiles | Anaer choline gr | Anaer choline gr early
O=C(NCC1CCCO1)c1ccc2c(c1)CCN2S(=O)(=O)c1ccc(Cl)cc1 (configuration not stated) | i | 0.5
CC1Cc2ccccc2N1C(=O)c1ccc(N2C(=O)C(C)(C)CS2(=O)=O)cc1 (configuration not stated) | i | -0.41
COc1ccc(-c2nc(CCNC(=O)c3ccc(C(C)(C)C)cc3)cs2)cc1 | i | 2.2
Cc1noc(C)c1S(=O)(=O)N1CCC(CC(=O)N2CCN(C(=O)C3CC3)CC2)CC1 | i | -1
O=C1CN(/N=C/c2ccc([N+](=O)[O-])o2)C(=O)N1 | i | -1.5
CCc1ccc(N2CCn3c2nc2c3c(=O)n(CC(=O)O)c(=O)n2C)cc1 | i | -1.7
CCN1CCCC1CNS(=O)(=O)c1ccccc1-c1nc(-c2ccc(C)cc2)no1 (configuration not stated) | i | -0.89
C=C1C(=O)O[C@H]2[C@H]1CC/C(C)=C/CC[C@@]1(C)O[C@@H]21 | i | 0.6
Cc1noc(C)c1S(=O)(=O)Nc1ccc2[nH]c(=O)oc2c1 | i | -0.04
CCCN1C(=O)c2ccccc2Sc2cc(-c3noc(CN4C(=O)COc5ccccc54)n3)ccc21 | i | 1.9
Cc1nn2c(c1-c1ccc(Cl)c(S(=O)(=O)NC3CC3)c1)NC(=O)CCC2=O | i | 0.19
Cc1nc2ccccc2c(=O)n1-c1ccc(NC(=O)c2ccc(C(C)C)cc2)cc1 | i | 0.25
COc1ccc(NC(=O)c2cc3c(C)nn(-c4ccc(Cl)cc4)c3s2)c(OC)c1 | i | 0.62
CCOC(=O)N1CCC2(CC1)N=C(c1cc(Cl)ccc1O)CC(c1ccccc1O)N2 (configuration not stated) | i | -2.3
CCSc1nsc(NC(=O)c2cccc(C)c2)n1 | i | 0.46

# Continuation.
SMILES,Anaer choline gr,Anaer choline gr early
CCOc1ccc(Cn2c(=O)c3sccc3n3c(SCc4ccc(F)cc4)nnc23)cc1OCC,i,-0.21
Cc1nc(-c2cc(S(=O)(=O)Nc3cccc(Cl)c3C)c(C)s2)sc1C,i,1.3
Cc1ccc(C(=O)Nc2ccc(C(=O)N3CCC(C(=O)NCCC(C)C)CC3)cc2)cc1,i,1.1
Cc1c(C)n(-c2ccc(F)c(F)c2)c2ncnc(Nc3cc(F)ccc3F)c12,i,0.56
O=S(=O)(Cc1ccc(Cl)cc1)c1ccc(NC2CC2)nn1,i,-0.5
Cc1ccc(-c2nc3c4c(C)c(C)n(Cc5cccnc5)c4ncn3n2)cc1,i,0.45
CCOC(=O)c1cc(-c2ccccc2)n(CC(=O)N2CCC(C)CC2)c1C,i,1.3
Cc1cc(C)cc(OC(C)C(=O)Nc2onc3c2CCCC3)c1 (configuration not stated),i,-0.08
CCCCN(CC)S(=O)(=O)c1ccc2c(c1)N(C(C)=O)CCCS2,i,0.41
CC1CCC(NC(=O)C2(C)Cn3c(cc4occc43)C(=O)N2CCCN2CCOCC2)CC1 (configuration not stated),i,-0.48
CCCn1c(=O)c2ccc(C(=O)NC(C)C)cc2n2c(SCc3ccccc3F)nnc12,i,-0.18
COCCN(CCC(=O)N1CCNCC1)C(=O)c1ccc(Cl)cc1,i,-0.67
